Compound activity from PubChem BioAssay.
VACV Venus inh: inhibitors of vaccinia virus (Venus reporter). Vaccinia virus Venus reporter expression, fluorescence. Potency, µM (series often up to 36.5 µM), without a hit: at the highest dose activity change, negative = inhibition, most hits filed as inhibitors. 0.46% of 330,000 active. AID 720580; active means well fitted inhibition curve with a large enough effect; inconclusive means small, poorly fitted or top-dose-only effect; inactive means no such curve, though single readings can be large or run the other way; tested in A549 cells; also: nearly all actives have a fitted effect of over 30% in size; inactives centre near -10
VACV mCherry inh: inhibitors of vaccinia virus infection (mCherry reporter signal); Vaccinia virus mCherry reporter infection, fluorescence; about a quarter of the inactives have no number; Potency, µM (highest dose often 36.5 µM), without a hit: at the top dose activity change, negative = inhibition, hits mostly inhibitors; 0.63% of 310,000 active; AID 720579; active = well fitted inhibition curve with a large enough effect; inconclusive = small, poorly fitted or top-dose-only effect; inactive = no such curve, though single readings can be large or run the other way; tested in A549 cells; also: nearly all actives have a fitted effect of over 35% in size; inactives centre near -10
Numbers without * were called inactive; i = inactive; u = inconclusive; x = not tested or not shown; [ ] = dose if it differs, or a comment. % is scaled to controls: 0 for no effect and ±100 for the full control effect; potency is read from the fitted curve at half-maximal effect.

| canonical_smiles | VACV Venus inh | VACV mCherry inh |
| --- | --- | --- |
| Cc1cc(-c2nnc3sc(-c4ccc(Cl)cc4Cl)nn23)n[nH]1 | -16% | x |
| CC(=O)c1[nH]c(C)c(C(=O)NCCc2ccc(C)cc2)c1C | -3% | -9% |
| Cc1cc(NC(=O)c2ccc(F)cc2)n(-c2ccccn2)n1 | -14% | -26% |
| COc1cc(C(=S)N2CCOCC2)ccc1OC(=O)c1cc(OC)c(OC)c(OC)c1 | -14% | i |
| COCc1nnc(SCC(=O)NC(C)c2ccccc2)n1-c1ccccc1 (stereo unspecified) | -5% | -13% |
| CCCCSCc1[nH]c(=O)[nH]c1C(=O)CCCCC(=O)OCC | u | i |
| CC(C)CCn1c(CN2CCN(C(=O)c3ccco3)CC2)nc2c1c(=O)n(C)c(=O)n2C | -9% | -1% |
| COC(=O)c1c(NC(=O)CSc2nc(-c3ccco3)cc(C(F)(F)F)n2)sc2c1CCCC2 | -11% | -3% |
| O=C(N/N=C\c1cc2c(cc1[N+](=O)[O-])OCO2)c1cccs1 | -7% | i |
| Cc1nc(-c2ccc(S(=O)(=O)N3CCN(c4cc(Cl)ccc4C)CC3)cc2)co1 | 5% | -6% |
| CCNC(=O)C1CCN(c2nnc(C)c3c(C)n(-c4ccc(OC)cc4)nc23)CC1 | -3% | -17% |
| CCOc1ccc(S(=O)(=O)N(C)CC(=O)N2CCCC2)cc1 | -5% | i |
| Cc1ccc(CCNC(=O)CCn2nc(-c3ccc(Cl)cc3)ccc2=O)cc1 | -11% | -12% |
| Cc1ccccc1-c1cc2nc(NCc3ccc(N(C)C)cc3)n(C)c(=O)c2s1 | -15% | u |
| CC(=O)Nc1ccc(C(=O)N/C(=C/c2ccccc2)C(=O)N2CCCCC2)cc1 | -5% | 0% |
| Cc1ccc([N+](=O)[O-])cc1S(=O)(=O)NCCc1c(C)[nH]c2c(C)cccc12 | -18% | -6% |
| Cc1ccc(N2CC(C(=O)Nc3nnc(C)s3)CC2=O)cc1 (stereo unspecified) | -16% | i |
| NS(=O)(=O)c1ccc(CNC(=O)c2cc(S(=O)(=O)N3CCOCC3)c(Cl)cc2Cl)cc1 | -10% | -14% |
| CC1(C)Cc2cccc(OCC(=O)Nc3ccccc3N3CCOCC3)c2O1 | -17% | i |
| C/C(Cl)=C\Cn1c(Nc2ccccc2)nc2c1c(=O)n(C)c(=O)n2C | -7% | -5% |
| COc1ccc(N2CCN(C(=O)Cn3nnc(-c4ccc(N(C)C)cc4)n3)CC2)cc1 | 5% | -12% |
| CCCc1cc(C(=O)OC)c(NC(=O)CCCC(=O)O)s1 | 2% | -8% |
| CN(C)CCCNc1nccc(N2CCN(C)CC2)n1 | -10% | -6% |
| CCOC(=O)C1CCN(C(=O)NC23CC4CC(CC(C4)C2)C3)CC1 | -11% | i |
| CCOC(=O)CSc1nnc(SCCN2C(=O)c3ccccc3C2=O)s1 | -9% | -15% |
| COc1cccc(CNC(=O)c2ccc(NC(=O)CC3SC(N4CCCCC4)=NC3=O)cc2)c1 (stereo unspecified) | -20% | -10% |
| O=C(Nc1nnc(CC2=CCCCC2)s1)Nc1ccccc1F | -10% | 13% |
| O=C(NC1CCCCC1)C(Cc1ccccc1)NS(=O)(=O)c1cccs1 (stereo unspecified) | -10% | -14% |
| CCCCN(Cc1cc2cccc(C)c2[nH]c1=O)S(C)(=O)=O | -4% | i |
| COc1ccccc1NC(=O)Nc1nc(CC(=O)N2CCN(c3ccccc3F)CC2)cs1 | -25% | u |
| Cc1oc(-c2cccs2)nc1CNC[C@H]1O[C@@H](n2cnc(C(N)=O)n2)[C@H](O)[C@@H]1O | 0% | -22% |
| Cc1nn(C)c(C(=O)Nc2ccc(Br)cc2F)c1Br | -15% | i |
| O=C(CCCN1C(=O)CCC1=O)Nc1ccc(Cl)c(C(F)(F)F)c1 | -14% | x |
| CC(C)n1cnc2cc(NCc3nc4ccccc4n3C)ccc21 | -1% | -2% |
| CCOc1cc(NC(=O)CCl)c(OCC)cc1NC(C)=O | -18% | i |
| COc1cc(NC(=O)C2=C(C)OCCS2)c(Cl)cc1C(=O)NCCN(C)C | -21% | -3% |
| C#CCN(C)CC/C=C1\c2ccccc2CSc2ccccc21 | -28% | -9% |
| COc1cccc(NC(=O)c2ccc(-c3nc(COc4ccc(C)cc4)c(C)o3)cc2)c1 | -30%[7.34 µM] | -23%[7.34 µM] |
| COc1ccc(CNC(=O)c2coc(=O)c3ccccc23)c(OC)c1 | -2% | -1% |
| O=C(CCn1nc(-c2ccccc2)c2ccccc2c1=O)NN1CCOCC1 | 5% | -4% |

Three compounds from above, arranged by length of the SMILES, low to high.
| canonical_smiles | VACV Venus inh | VACV mCherry inh |
| --- | --- | --- |
| COc1ccc(CNC(=O)c2coc(=O)c3ccccc23)c(OC)c1 | -2% | -1% |
| COc1ccc(N2CCN(C(=O)Cn3nnc(-c4ccc(N(C)C)cc4)n3)CC2)cc1 | 5% | -12% |
| Cc1oc(-c2cccs2)nc1CNC[C@H]1O[C@@H](n2cnc(C(N)=O)n2)[C@H](O)[C@@H]1O | 0% | -22% |

Next part.
Values in the order – VACV Venus inh, VACV mCherry inh
CC(Sc1nc2ccccc2n1C)C(=O)Nc1ccc(N2CCOCC2)cc1 (stereo unspecified)
 : -6%, -12%
CCOC(=O)c1cc2ccccc2n1C1CCN(C)CC1
 : -5%, i
O=C1C(=O)N(CCN2CCOCC2)C(c2ccc([N+](=O)[O-])cc2)/C1=C(/O)c1ccc2c(c1)OCO2 (stereo unspecified)
 : -6%, -5%
COc1ccc(CN(C)CCCn2cnc3c(SC)ncnc32)cc1OC
 : -19%, -2%
O=C(Cn1cnc2onc(-c3ccc(F)cc3)c2c1=O)N1CCN(c2ccccc2F)CC1
 : -4%, 1%
Cc1ccc(NC(=O)Cc2coc3c(C)c(C)ccc23)c(C)c1
 : -11%, -15%
COCCN1CCN(C(=O)C2CCC(=O)N(Cc3ccccc3OC)C2)CC1 (stereo unspecified)
 : -8%, -7%
O=C(O)C=Cc1c[nH]c2nccnc12
 : -4%, -10%
COc1ccc(C(C(=O)NC2CCCC2)n2c(CSCCOc3ccccc3)nc3ccccc32)cc1 (stereo unspecified)
 : -7%, -23%
COc1ccc(Cn2c(=O)[nH]c3cc(C(=O)NCCCN4CCCCCC4)ccc3c2=O)cc1
 : 3%, -16%
O=C(O)/C=C/C(=O)Nc1ccccc1SC(F)(F)C(F)(F)C(F)(F)F
 : -13%, i
COC(=O)c1ccc(NC(=S)NN2CCCCC2c2cccnc2)cc1 (stereo unspecified)
 : -14%, -16%
COC(=O)CSc1nc2sc3c(c2c(=O)n1-c1ccccc1C)CC(C)(C)OC3
 : 1%, -11%
CC1(C)CC(=O)c2cnc(NC(=O)CSC(=S)N3CCCCC3)nc2C1
 : -12%, -11%
Cc1ccc(C2CCN(C(=O)c3cnn(-c4cccc(Cl)c4)c3C3CCN(C(=O)OC(C)(C)C)CC3)C2)cc1 (stereo unspecified)
 : -20%, u
COC(=O)c1c(NC(=O)c2cccnc2)sc(C(=O)N(C)C)c1C
 : -5%, -14%
CC1CCN(S(=O)(=O)c2ccc3[nH]c(=O)cc(C(=O)O)c3c2)CC1
 : -1%, -11%
NC(=O)NC(CC(=O)OCC(=O)Nc1nnc(-c2ccccc2)o1)c1ccc(Cl)cc1 (stereo unspecified)
 : -19%, 0%
Cc1ccc(C(=O)N[C@H](C(=O)OCC(=O)NC2CCS(=O)(=O)C2)C(C)C)cc1 (stereo partly specified)
 : -11%, -11%
COc1cccc(C2Cc3ccccc3C(=O)O2)c1 (stereo unspecified)
 : -12%, -16%
CC(C)(C)OC(=O)C[C@H]1C/C=C\C[C@@H](CC(=O)N(CCO)Cc2ccccc2)C(=O)N[C@H](C(C)(C)C)COC1=O
 : -15%, -24%
O=C1N(Cc2ccccc2)c2ccc(Cl)cc2C1(O)c1c[nH]c2ccccc12 (stereo unspecified)
 : -10%, 1%
CCOc1ccc(-n2cc(-c3ccccc3)c3c(N4CCN(c5ccccc5OC)CC4)ncnc32)cc1
 : -14%, -21%
c1cncc(CNCCc2c[nH]c3ccccc23)c1
 : -2%, -26%
O=S(=O)(NCc1cccc(C(F)(F)F)c1)NCc1ccccc1F
 : -11%, -5%
Cc1ccc(OCC(=O)N(Cc2ccc(Cl)cc2)CC2CCCO2)cc1C (stereo unspecified)
 : -11%, -15%
COc1ccc(-c2noc(COc3ccc4c(c3)OCO4)n2)cc1OC
 : -28%, -17%[1.46 µM]
CC(Oc1ccc(Cl)cc1Cl)C(=O)NNC(=O)C(=O)N1CCCCC1 (stereo unspecified)
 : -8%, -12%
CN(N=Nc1nc[nH]c1C(N)=O)C1CCCCC1
 : -2%, 14%
c1ccc(-c2cnc(CN3CCN(c4ccccc4)CC3)o2)cc1
 : -6%, -26%
COc1ccc(C(=O)N(C)Cc2ccon2)cc1OC1CCN(C(C)C)CC1
 : -8%, -10%
CCOc1ccc(/C=C/C(=O)OCC(=O)c2ccccc2OC)cc1OC
 : -6%, -8%
CCc1ccc(N/C(SC)=C(/C#N)C(N)=O)cc1
 : -17%, -6%
CC(C)Oc1ccc(C2CC(=O)NC2=O)cc1 (stereo unspecified)
 : -12%, i
COc1ccc(CCNC(=O)Cn2c(-c3ccc(F)cc3)cc(C(C)=O)c2C)cc1OC
 : 1%, -3%
CC(OC(=O)CN1C(=O)COc2ccccc21)C(=O)NCc1ccc(F)cc1 (stereo unspecified)
 : -5%, -14%
COC(=O)C[C@@H]1C[C@@H]2c3cc(NS(=O)(=O)c4ccc(F)cc4)ccc3O[C@@H]2[C@H](CO)O1
 : -5%, -7%
CC(C)n1cnnc1SCC(=O)NNC(=O)COc1ccc(Cl)cc1
 : -2%, -3%
CC1ON=C(c2ccccn2)N(Cc2ccc(S(C)(=O)=O)cc2)C1=O (stereo unspecified)
 : 1%, i
Cc1cc2cc(C)c3nnc(SCc4ccccn4)n3c2cc1C
 : -5%, -21%

Compound profiles (already shown). Values in the order: VACV Venus inh | VACV mCherry inh
`COc1ccc(CCNC(=O)Cn2c(-c3ccc(F)cc3)cc(C(C)=O)c2C)cc1OC` is entered as 1% | -3%
`Cc1ccccc1-c1cc2nc(NCc3ccc(N(C)C)cc3)n(C)c(=O)c2s1` is entered as -15% | u
`O=C(N/N=C\c1cc2c(cc1[N+](=O)[O-])OCO2)c1cccs1` is entered as -7% | i

Other entries
Values in the order – VACV Venus inh, VACV mCherry inh
CCCn1c(C)cc(/C=C(\C#N)C(=O)OCC(=O)Nc2ccc(OC)c(Cl)c2)c1C
 : -16%, -27%
Cc1nc(NC(=O)CSc2nc(N)cc(N)n2)sc1C
 : -9%, -2%
O=C(CN(c1cc(Cl)ccc1Cl)S(=O)(=O)c1ccccc1)N1CCOCC1
 : -4%, i
O=C(O)c1cccc(-n2cccc2/C=C2/NC(=O)N(Cc3ccccc3F)C2=O)c1
 : 0%, -6%
N/C(=N\OC(=O)COc1ccc(Br)cc1)c1cccc([N+](=O)[O-])c1
 : -12%, i
O=C(CN1CCN(c2ncc(C(F)(F)F)cc2Cl)CC1)Nc1ccc2c(c1)OCO2
 : -8%, -13%
CCOC(=O)COc1ccc(S(=O)(=O)Nc2ccc3c(c2)OCO3)cc1
 : 5%, -13%
CC(C)N1CC(C(=O)Nc2ccc(S(=O)(=O)N3CCCCC3)cc2)CC1=O (stereo unspecified)
 : -23%, i
CCOC(=O)N/N=C(/c1ccccc1)C1CCCCC1
 : -7%, i
CC1=C(C(=O)N(C(C)C)C(C)C)CC(CC(=O)NCc2cccc3ccccc23)C(=O)N1CCC1=CCCCC1 (stereo unspecified)
 : -14%, 10%
COc1cc2c(cc1OC)CN(C(=S)Nc1ccccc1)CC2
 : -22%, -5%
NC(=O)c1ccsc1NC(=O)COC(=O)CCOc1ccccc1
 : 80%[activator], i
Cc1nn(CC(=O)N2CCN(Cc3ccccc3)CC2)c(=O)c2ccccc12
 : -22%, i
CCCCn1cc(S(=O)(=O)c2ccc(C)cc2)c(=O)c2cc(F)c(N3CCCCC3)cc21
 : -10%, -2%
O=C(CN1C(=O)NC2(CCCC2)C1=O)Nc1cccc(Cl)c1
 : -13%, -3%
C/C(=N/NC(=O)c1sc(NS(=O)(=O)c2ccccc2)nc1C)c1ccc(F)cc1
 : -11%, -8%
Cc1csc(NC(=O)CSc2nnc(C)n2Cc2ccco2)n1
 : -7%, -15%
CC(=O)NNc1nc(-c2ccccc2)cs1
 : -2%, -11%
CC(CNC(=O)c1ccc2nc(Cc3ccccc3)oc2c1)c1ccccc1 (stereo unspecified)
 : -5%, -15%
C[C@H](CO)N1C[C@H](C)[C@H](CN(C)S(=O)(=O)c2cn(C)cn2)OCc2cnnn2CCCC1=O
 : 2%, i
O=C(Nc1nccs1)c1ccc(COc2ccccc2Cl)o1
 : -18%, u
O=C(CCn1nc(-c2ccc(Cl)cc2)c2ccccc2c1=O)NCC1CCCO1 (stereo unspecified)
 : -16%, -17%
CCOc1ccc(C(=O)NC2CCN(S(=O)(=O)c3ccccc3)CC2)cc1
 : -17%, -20%
O=S1(=O)CCC(NC(=S)Nc2ccc3ccccc3c2)C1 (stereo unspecified)
 : -9%, -2%
Cc1cc(C(=O)CSc2nnc(NCc3ccccc3)s2)c(C)n1C
 : u, -25%
COC(=O)c1ccc(NC(=O)Nc2ccc3c(c2)OCO3)cc1
 : -7%, -1%
CC(C)C[C@H]1CN([C@@H](Cc2ccc(O)cc2)CN2CCC[C@@H]2CN2C(=O)C(=O)NC[C@@H]2Cc2ccccc2)C(=O)C(=O)N1CC1CCCCC1
 : -17%, i
CCN1CCN(c2ccc(S(=O)(=O)N3CCCCC3)cc2NC(=O)c2cccc(Cl)c2)CC1
 : -5%, u
Cc1ncc2c(n1)-c1cc(F)ccc1SC2
 : -18%, i
CC(C)(C)NCC(O)COCc1ccc(Cl)cc1 (stereo unspecified)
 : -7%, i
